# Env fusion inh: inhibitors of HIV Env-mediated cell fusion; inhibition, % at 12.3 µM; 360,000 tested, 1.1% active; HeLa-JRFL Env/CEM21 cell fusion, luciferase;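 active = mean replicate inhibition score of at least 50 and every replicate individually at or above 50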;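 also: 0% = plate neutral controls and 100% = maraviroc near 300 nM; one replicate is shown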
# MT1-MMP act inh: inhibitors of human MT1-MMP activation; P50281; 360,000 tested, 0.061% active; GFP/RFP ratio change, % at 20 µM; HT1080 RFP-PRO-GFP cells, GFP/RFP ratio fluorescence, overnight; percent of plate control window, DMSO zero;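 active = GFP/RFP ratio change of at least 30% with cell ATP level not reduced by more than half and red fluorescence within 50% of control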; also: strong numbers were not always called active
#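 Assay system – RFP-PRO-GFP reporter HT1080 cells · Compound dosing – single dose of 20 µM compound, 1% DMSO final · Incubation – overnight compound exposure at 37 °C · Measure – GFP/RFP fluorescence ratio · Benchmarks – DMSO wells and RFP-L50D-GFP cells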
# CSC inhib: blocks cancer stem cells; cancer stem cell-like cells viability, luminescence; inhibition, % at 7.5 µM; 300,000 tested, 1.1% active;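 active = mean at 75% or more and at least half the replicates too; tested in HMLE shEcad cells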;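 also: 0% = median of negative and 100% = median of positive control wells; the first replicate is given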
# Rce1 inhib: blocks yeast Ras-converting enzyme | AID 2563 | Q03530 | 290,000 tested, 0.27% active | yeast membranes, quenched prenylated peptide cleavage fluorescence | calls only;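 active = fall in fluorescence gain of 50% or more versus controls, with final raw signal at or below 3038400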;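 also: plate controls were neutral control wells for no effect and wells lacking membranes for full effect; tested at 10 µM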
# Target sequence (Q03530 whole entry, looked up): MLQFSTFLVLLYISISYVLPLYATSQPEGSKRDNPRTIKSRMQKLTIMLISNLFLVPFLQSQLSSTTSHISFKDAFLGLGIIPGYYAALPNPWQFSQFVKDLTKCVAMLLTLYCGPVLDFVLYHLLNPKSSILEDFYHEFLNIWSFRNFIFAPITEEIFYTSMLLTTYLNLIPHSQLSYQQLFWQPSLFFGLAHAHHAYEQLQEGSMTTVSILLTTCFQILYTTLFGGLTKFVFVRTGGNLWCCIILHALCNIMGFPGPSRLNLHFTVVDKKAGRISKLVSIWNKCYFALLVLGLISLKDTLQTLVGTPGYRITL
# eIF4H inh: inhibitors of RNA binding by human eIF4H; 290,000 tested, 0.94% active; Q15056; inhibition, % at 35 µM; eIF4H fluorescence polarization binding assay;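 active = 50% or more with normal probe brightness, or confirmed in later tests; about a fifth of its hits are not listed in these tables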;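 also: calls also rest on retests at 20 µM and on dose response follow-up; 0% = protein and probe with vehicle and 100% = probe without protein; strong numbers were not always called active; many hits fall short of the cut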
# Yeast UUG start: alters start codon recognition fidelity in yeast. S. cerevisiae UUG-firefly luciferase reporter, luminescence/redox ratio. activity score, % at 18.7 µM. 350,000 tested, 0.13% active;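 active = replicate mean at a twofold rise or more, about +100% in these data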;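 also: firefly luciferase made from a UUG start codon reports start codon fidelity; reporter light over untreated wells divided by growth signal over untreated wells; some hits fall short of that in this replicate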
# PABP polyA inh: PABP-poly(A) binding inhibition | PABP-poly(A) RNA binding, fluorescence polarization | inhibition, % at 35 µM | 290,000 tested, 1% active;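 active = 50% or more with normal probe brightness, or confirmed in later tests; about a fifth of its hits are not listed in these tables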;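 also: calls also rest on retests at 20 µM and on dose response follow-up; controls were probe without protein and protein plus probe with vehicle; some compounds called inactive have numbers as strong as hits; many hits fall short of the cut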
# Target sequence (P11940 whole entry, looked up): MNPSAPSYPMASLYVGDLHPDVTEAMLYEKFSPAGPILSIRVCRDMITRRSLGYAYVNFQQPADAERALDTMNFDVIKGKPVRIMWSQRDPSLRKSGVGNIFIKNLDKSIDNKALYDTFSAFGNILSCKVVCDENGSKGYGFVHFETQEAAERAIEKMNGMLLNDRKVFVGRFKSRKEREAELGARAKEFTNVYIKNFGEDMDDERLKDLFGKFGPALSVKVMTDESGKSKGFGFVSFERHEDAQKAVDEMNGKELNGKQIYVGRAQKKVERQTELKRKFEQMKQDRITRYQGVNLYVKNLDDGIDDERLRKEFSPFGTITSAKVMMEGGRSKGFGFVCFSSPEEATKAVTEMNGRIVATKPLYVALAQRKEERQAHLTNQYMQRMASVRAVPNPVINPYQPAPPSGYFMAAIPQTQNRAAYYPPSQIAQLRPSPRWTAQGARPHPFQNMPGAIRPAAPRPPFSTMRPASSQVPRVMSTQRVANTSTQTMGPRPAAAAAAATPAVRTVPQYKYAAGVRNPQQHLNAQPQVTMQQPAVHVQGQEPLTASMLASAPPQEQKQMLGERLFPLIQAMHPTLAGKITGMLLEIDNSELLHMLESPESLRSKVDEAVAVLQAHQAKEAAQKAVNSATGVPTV
# eIF4H inh retest: also measured in eIF4H inh; calls as there; inhibition, %; compound at 20 µM; confirmation average;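 mean of two retest wells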
# PABP polyA inh retest: recorded beside PABP polyA inh, whose call it bears; inhibition, %; compound at 20 µM; confirmation repeats;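 mean of two retest wells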
# MT1-MMP act inh RFP: recorded beside MT1-MMP act inh, whose call it bears; RFP signal change, %; measured here: RFP expression control read;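 0 = vehicle wells; hits needed this value within 50% of zero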
# * hit, by the source's call; i = inactive; . = not tested or not shown; + = active, no number. An excerpt; count on the stated rates, not on these rows.
SMILES,Env fusion inh,MT1-MMP act inh,MT1-MMP act inh RFP,CSC inhib,Rce1 inhib,eIF4H inh,Yeast UUG start,PABP polyA inh,others
CCc1[nH]nc2c1C1(C(=O)N(Cc3ccccc3)c3ccccc31)C(C#N)=C(N)O2 (stereo not given),.,-0.3,-3.9,-1.9,i,3.0,-7.5,-1.1,
Cc1cc(C)c(N=Cc2c(O)c3ccccc3oc2=O)c(C)c1,-7.9,-3.8,1.3,-9.0,i,-5.7,-19.9,-4.0,
C/C=C/c1ccc(OCCCCN2CCN(CC)CC2)c(OC)c1,4.7,4.2,4.5,-12.0,i,12.5,.,8.4,
Cc1cccnc1NC(=O)Nc1ccccc1,-20.9,-5.5,-3.1,-6.2,i,4.3,4.6,0.0,
O=C(Nc1ccc(Cc2ccncc2)cc1)c1ccc(Br)o1,10.2,-3.8,-9.6,-9.4,i,-0.6,-5.4,-14.8,
O=C(NC1CCCCC1)C(c1c(F)cccc1Cl)N(C(=O)c1csnn1)C1CC1 (stereo not given),6.6,-1.6,3.6,-16.5,.,-5.1,-1.7,15.2,
COc1cc(O)c(/C=N/NC(=O)c2ccncc2)c(OC)c1[N+](=O)[O-],8.7,-1.3,5.3,7.2,i,26.5,.,7.4,
COc1cc2c(C(=O)OCCN(C)C)c(CSc3ccccc3)n(C)c2cc1Br,0.6,-1.2,-9.3,-0.5,i,-14.0,4.3,1.7,
CC1CCN(c2cc(=O)n(C3CCCCC3)c(=O)[nH]2)CC1,-22.2,-1.2,-4.6,-5.6,i,-1.4,-12.9,-7.5,
NC(=O)C1CCN(C(=O)COc2ccc3ccccc3c2)CC1,.,5.1,0.7,-13.2,i,-7.7,.,-0.4,
CCn1c(=O)c2c(nc(SCC(=O)Nc3ccccc3)n2C)n(C)c1=O,-12.2,0.0,-0.4,-12.5,i,-6.8,1.1,14.7,
O=c1c2ccccc2nc2c3ccccc3ncn12,.,-0.1,-1.1,1.6,i,3.4,-8.8,11.9,
CC(C)(C)NCC(O)CON=C1c2ccccc2-c2ccccc21 (stereo not given),-28.3,-6.6,-8.0,5.9,i,9.9,.,-10.7,
O=C(CN1CCN(S(=O)(=O)c2ccccc2C(F)(F)F)CC1)NCc1cccs1,2.2,0.9,1.6,-6.6,i,.,-1.2,.,
Cc1nn(C)c(C)c1CNC(=O)Nc1cccc(Cl)c1C,1.7,-2.9,-1.1,-4.4,i,-2.8,-22.9,13.0,
CCOc1ccc(NS(=O)(=O)c2cccc(C(=O)N(C)Cc3ccco3)c2)cc1,.,1.5,1.3,-8.4,.,.,3.8,.,
COc1ccc(-n2c(C)c(C(=O)O)c3cc(OC)c4ccccc4c32)cc1,-3.2,-1.7,1.5,1.6,i,0.8,13.8,0.8,
COCCNC(=O)C1(C)CCN(C(=O)c2ccc3c(c2)C(C)(C)CCC3(C)C)C1 (stereo not given),-5.9,1.5,-3.1,.,.,.,3.1,.,
CC(C)C[C@@H](CN)NC(=O)c1nc[nH]c1C(=O)N[C@@H](CC(=O)O)C(=O)CNC[C@H](C)NC(=O)c1nc[nH]c1C(=O)N[C@@H](CC(=O)O)C(=O)O,-9.2,3.7,5.3,.,.,.,15.7,.,
O=C1C(Cl)=C(N2CCCC2)C(=O)N1c1ccccc1F,1.9,-2.0,2.9,-12.3,i,11.1,-5.2,4.6,
O=C(Nc1cccc(C(F)(F)F)c1)/C(=C\c1ccco1)NC(=O)c1cccs1,.,-4.6,-0.2,4.9,i,26.3,-18.4,3.9,
Cc1ccccc1Cn1c(C)c(C(=O)NCc2cccc(C(F)(F)F)c2)sc1=O,30.1,9.4,0.8,.,.,.,-2.3,.,
COc1ccccc1NS(=O)(=O)c1cccc(C(=O)N/N=C/c2cn(-c3ccccc3)nc2-c2ccccc2)c1,.,1.1,2.3,25.1,i,0.3,.,-4.5,
CC(=O)Nc1ccc(CN2CCc3c([nH]c4ccccc34)C2C(C)(C)C)cc1 (stereo not given),2.5,-1.9,-1.3,6.9,i,-4.5,-19.8,2.3,
O=C(NCCN1CCOCC1)C1CCN(S(=O)(=O)N2CCCCC2)CC1,.,-0.2,1.4,-7.5,i,-11.4,-23.0,-9.4,
COCCNC(=O)/C(C#N)=C/c1ccc(OCc2ccccc2)cc1,-15.9,-4.6,-5.9,-8.7,i,-6.2,1.5,-2.4,
CCNc1ccc(Br)cc(C(=O)/C=C/c2ccc(Cl)cc2Cl)c1=O,-245.1,-32.7,-2.2,54.1,i,78.3,-5.3,-4.9,eIF4H inh retest=-1.3;PABP polyA inh retest=10.5
Cc1ccc(OCC(=O)Nc2ccccc2F)cc1C,-50.8,2.9,1.7,-1.6,i,-2.1,.,15.2,
CN(c1ccccc1)S(=O)(=O)c1ccc(NC(=S)Nc2ccccc2)cc1,.,0.0,0.4,-1.3,i,-3.8,-0.2,2.7,
CC(OC(=O)CN1C(=O)c2ccccc2C1=O)C(=O)NC1(C#N)CCCCC1 (stereo not given),-1.3,3.4,-1.3,-2.1,.,.,-1.9,.,
CC1(C)C2CCC(CN=C(N)CSS(=O)(=O)O)C1C2 (stereo not given),-4.5,-5.4,2.4,.,.,.,-5.4,.,
CC(=O)OCc1c(C(F)(F)F)nn(C)c1Oc1ccccc1,-34.8,-7.5,1.9,-0.7,i,-5.0,-9.4,-3.3,
Cc1ccc(C(=O)OCc2nnc(-c3ccc(Br)cc3)o2)cc1,2.5,-2.9,2.8,0.5,i,-6.2,-19.9,-3.6,
Cc1cccc(C)c1N(CC(=O)N1CCOCC1)S(C)(=O)=O,1.5,1.2,1.5,-9.3,i,-14.7,-8.7,-4.6,
CCC(=O)c1ccc(N2CCN(C(=O)c3cc([N+](=O)[O-])ccc3N3CCN(C)CC3)CC2)c(F)c1,16.7,5.0,0.1,-1.9,i,-7.1,-12.1,-11.2,
O=C(NNC(=O)c1cc2ccccc2cc1O)Nc1ccccc1F,18.8,0.0,2.3,5.4,i,-0.9,-14.0,-3.6,
Cc1ccc(C)c(N2CCN(C(=O)C3CCCN(c4ncnc5c4nc4n5CCCCC4)C3)CC2)c1 (stereo not given),18.7,-4.3,-16.1,-9.4,i,7.3,-16.1,5.4,
COc1cccc(-c2nc(C(N)=O)c3[nH]c(=O)n(-c4cccc(Cl)c4)c3n2)c1OC,6.3,0.6,-3.2,-12.3,i,-10.8,-20.1,-2.9,
O=C(CCNC(=O)c1ccccc1Cl)Nc1cccc(S(=O)(=O)N2CCCCC2)c1,-17.8,-0.5,1.8,.,.,.,19.6,.,
OC(C#CCN1CCOCC1)(c1ccccc1)C1CCCCC1 (stereo not given),.,0.6,0.5,-12.3,i,9.8,-9.0,11.9,
Cc1cccc(OCc2nnc(SCC(=O)Nc3ccc(N4CCOCC4)cc3)o2)c1,2.3,0.2,0.3,-2.2,i,-9.7,-10.7,-1.9,
CCS(=O)(=O)Nc1ccc(C2=NN(C(=O)c3ccccc3)C(c3cccs3)C2)cc1 (stereo not given),3.4,-7.7,-6.6,8.9,i,-15.5,-18.9,-11.2,
COc1ccc(C)cc1Nc1nc(N)c2cc(OC)c(OC)cc2n1,.,2.8,-2.2,5.6,i,-11.1,3.1,2.5,
Cc1cc(C)c(NC(=O)Cn2cc3c(n2)CCCC3)c(C)c1,11.4,1.3,-5.4,-4.6,i,-7.6,-14.0,16.2,
CC(=O)OC[C@H]1O[C@@H](O/N=C/[C@@H](C)[C@H](OCc2ccccc2)C(C)C)[C@H](OC(C)=O)[C@@H](OC(C)=O)[C@@H]1OC(C)=O,.,.,.,18.0,i,-6.4,.,31.7,
CCC1Oc2ccc(C)cc2N(CC(=O)NCc2ccccc2OC)C1=O (stereo not given),-18.9,-1.7,-4.3,2.9,i,0.4,0.5,2.6,
Cc1cc(C)cc(N(CC(=O)Nc2c(C)n(C)n(-c3ccccc3)c2=O)S(C)(=O)=O)c1,6.1,1.8,5.1,-5.1,i,-10.4,-15.2,-6.2,
O=C1c2cccc(OCC(=O)N3N=C(c4cccs4)CC3c3ccc(F)cc3)c2CCN1Cc1cccnc1 (stereo not given),7.2,-3.5,-8.8,16.7,+,-4.0,.,-13.9,
Cc1cc(C(F)(F)F)nc(SCC(=O)NC2CC3CCC2C3)n1 (stereo not given),.,3.8,1.8,-14.1,i,0.7,.,2.0,
Cc1cc(OCC(=O)Nc2cccc(S(=O)(=O)NC3=NCCCCC3)c2)ccc1Cl,3.4,2.5,-9.1,-3.8,i,2.5,-11.7,-8.5,
# (list continues)
SMILES,Env fusion inh,MT1-MMP act inh,MT1-MMP act inh RFP,CSC inhib,Rce1 inhib,eIF4H inh,Yeast UUG start,PABP polyA inh,others
CC12CCC3c4ccc(OCC(=O)O)cc4CCC3C1CCC2=O (stereo not given),-3.5,0.9,-1.7,.,.,.,-9.0,.,
CC1(C(=O)Nc2ccc3c(c2)OCO3)CCN1C(=O)CCC1CCCC1 (stereo not given),8.2,0.4,-1.1,.,.,.,-2.4,.,
C/C(CC(=O)NC(C)(C)C)=N\NC(=O)COc1ccc(C)cc1Br,-2.3,-0.9,1.2,-2.5,i,2.1,.,-12.5,
CN(C)CCNC=C(C(=O)Nc1ccc(Cl)cc1Cl)C(=O)Nc1ccc(Cl)cc1Cl,.,1.9,4.2,77.6*,i,-4.8,-9.8,-4.9,
COC(=O)N/N=C/c1c[nH]c2ccccc12,5.3,0.9,1.6,-13.4,i,-7.5,.,3.0,
COc1ccc(N2CC(NS(=O)(=O)c3ccc(F)cc3)CC2=O)cc1 (stereo not given),-23.1,0.3,0.1,2.0,i,.,.,.,
O=C(Nc1ccccc1Cl)c1c(F)c(F)c(F)c(F)c1F,24.7,-1.8,2.9,14.9,i,.,0.3,.,
O=C(NCCN1CCOCC1)c1ccccc1N1C(=O)[C@@H]2Cc3c([nH]c4ccccc34)C(c3ccc(F)cc3)N2C1=O (stereo not given in full),.,-3.0,-0.6,-15.0,i,8.5,3.4,16.7,
CCn1c(Cc2ccccc2)nnc1SCc1ccc([N+](=O)[O-])cc1,-1.8,-0.5,1.3,-9.9,i,-0.8,-18.7,-2.5,
O=C(/C=C/c1cccc(F)c1)Nc1cc(S(=O)(=O)N2CCOCC2)ccc1N1CCCC1,3.4,-5.4,-6.6,-1.9,i,12.1,-30.9,-5.5,
CCCOc1ccc(S(=O)(=O)NCCN2CCOCC2)c2ccccc12,.,2.8,0.7,-12.5,i,-0.7,1.7,-1.2,
CCCCNC(=O)CC1Nc2ccccc2NC1=O (stereo not given),2.6,-1.5,2.0,-11.7,i,5.8,-11.4,13.7,
O=C(Cc1ccccc1[N+](=O)[O-])N/N=C/c1cccnc1,-1.4,-1.2,0.8,2.9,i,-10.3,-6.2,-1.8,
Cc1ccc(C)c(/C(O)=C2\C(=O)C(=O)N(CCCn3ccnc3)C2c2ccncc2)c1 (stereo not given),-8.0,-2.0,-1.9,-4.1,i,9.3,-8.1,-1.5,
O=C(NC1CCCCC1)C(c1ccccc1)N1CCOCC1 (stereo not given),.,2.2,3.3,13.5,i,-2.4,-16.9,-2.0,
CN(C(=O)COC(=O)c1nc(Cl)c(Cl)c(Cl)c1Cl)C1CCS(=O)(=O)C1 (stereo not given),-168.4,-25.2,-20.7,.,i,12.3,.,1.8,

# 3 structures out of the list, sorted by heavy-atom count, rising:
SMILES,Env fusion inh,MT1-MMP act inh,MT1-MMP act inh RFP,CSC inhib,Rce1 inhib,eIF4H inh,Yeast UUG start,PABP polyA inh,others
CC1CCN(c2cc(=O)n(C3CCCCC3)c(=O)[nH]2)CC1,-22.2,-1.2,-4.6,-5.6,i,-1.4,-12.9,-7.5,
C/C=C/c1ccc(OCCCCN2CCN(CC)CC2)c(OC)c1,4.7,4.2,4.5,-12.0,i,12.5,.,8.4,
CC(C)C[C@@H](CN)NC(=O)c1nc[nH]c1C(=O)N[C@@H](CC(=O)O)C(=O)CNC[C@H](C)NC(=O)c1nc[nH]c1C(=O)N[C@@H](CC(=O)O)C(=O)O,-9.2,3.7,5.3,.,.,.,15.7,.,

# Bioassay records from PubChem.
